# Screening results from PubChem BioAssay.
# CDC25B-CDK2 inh – human CDC25B-CDK2/CyclinA binding inhibition; P30305+P24941; HTRF CDC25B-CDK2/CyclinA binding, anti-His/anti-Flag; active compounds read high; z-score (test concentration not listed); 94,000 compounds, 0.72% hits; AID 1259370;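 note: score is relative to mean and SD of negative controls; strong numbers were not always called active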
# TAR Tat displ – HIV-1 TAR-Tat binding disruption; HIV-1 TAR RNA, Tat peptide displacement FRET; active compounds read high; z-score (test concentration not listed); 100,000 compounds, 0.6% hits;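 note: score is relative to mean and SD of negative controls; some compounds called inactive have numbers as strong as hits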
# * = called active by the depositor; x = no result given.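 Rule for the calls: active = z-score from 3 up in half or more of its runs; inactive = the rest.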
# Order of values – CDC25B-CDK2 inh	TAR Tat displ
- Fc1ccc(Nc2c3c(nc4nncn24)CCC3)cc1
→ -0.3	1.26
- O=c1ccc(-c2ccc(S(=O)(=O)NC3CCCC3)o2)n[nH]1
→ x	1.73
- Cn1c2c(c(=O)n(C)c1=O)C(c1ccccc1Cl)CC(=O)N2 (configuration not stated)
→ 0.07	-1.66
- C(=C1\CCCC2=C1Nc1nnnn1C2c1ccccc1)/c1ccccc1 (configuration not stated)
→ 0.63	0.62
- CC12c3ccccc3C(c3ccccc31)C1C(=O)N(c3cccc(C(=O)O)c3)C(=O)C12 (configuration not stated)
→ -1.76	2.66
- O=C1C=CC(=O)N1Cc1ccc2c(c1)OCO2
→ -2.6	x
- CCc1ccc(S(=O)(=O)N2CCN(S(=O)(=O)c3ccc(CC)cc3)C(C)C2)cc1 (configuration not stated)
→ -0.79	0.53
- Nc1ccc(SCC(=O)O)c(C(=O)O)c1
→ -1.7	x
- COCCNC(=O)N1CCc2cc(S(=O)(=O)N3CCc4ccccc4C3)ccc21
→ x	0.33
- CN1CC(=O)Nc2cc(C(=O)NC3CCCC3)ccc21
→ x	0.47
- Nc1cc(Nc2ccc(Br)cc2)nc(N)n1
→ 0.79	x
- O=C(CN1C(=O)CSc2ccc(S(=O)(=O)N3CCCC3)cc21)N1CCOCC1
→ x	-0.84
- O=C(CCn1c(=O)oc2ccccc21)NCCN1CCCCC1
→ -1.07	x
- COCc1cc(C(C)(C)C)nc(N)n1
→ x	1.08
- CC(C(=O)Nc1ccc(Br)cc1F)N1Cc2ccccc2C1=O (configuration not stated)
→ x	1.04
- CCCS(=O)(=O)N1CCCc2ccc(NS(=O)(=O)c3cc(C)c(C)cc3C)cc21
→ x	2.09
- CCCCNc1cc(C)nc2c(-c3ccc(F)cc3)cnn12
→ 0.88	0.26
- O=C(CCc1nc(-c2ccccn2)no1)NCc1ccc2c(c1)OCO2
→ -2.91	x
- CC(=O)N1c2ccccc2NC2=C(C(=O)CC(c3ccccc3)C2)C1c1ccc(C)cc1 (configuration not stated)
→ -2.53	x
- C/C=C(\C)C(=O)Nc1nncs1
→ -0.66	x
- O=C(O)C1CCN(S(=O)(=O)c2ccc3[nH]ccc3c2)CC1
→ -0.15	0.83
- CSc1cccc(NC(=O)Cn2cnc(S(=O)(=O)N3CCc4ccccc43)c2)c1
→ x	-0.38
- CCOC(=O)C1=NOC2C(=O)N(c3ccc(C)cc3)C(=O)C12 (configuration not stated)
→ -0.48	2.6
- CCOc1ccccc1NS(=O)(=O)c1cc2c3c(c1)C(C)C(=O)N3CCC2 (configuration not stated)
→ x	2.12
- Cc1cc(C)c2c(=O)nc(SCC(=O)NCC3CCCO3)n(C3CC3)c2n1 (configuration not stated)
→ x	-0.25
- CCC(C)NC(=O)CCCN1C(=O)COc2ccc(C)cc21 (configuration not stated)
→ -3.08	x
- CCOc1ccc(-c2noc(-c3nnn(-c4ccc(OC)c(Cl)c4)c3N)n2)cc1
→ x	0.58
- Cc1cc(=O)c2c(=O)n(-c3nc4ccccc4s3)[nH]c2[nH]1
→ 4.43	2.84
- Cc1cc(C)cc(N(C(=O)c2cccs2)C2C=CS(=O)(=O)C2)c1 (configuration not stated)
→ 1.84	-0.05
- CN1CCN(C(=O)C2CC(c3ccc(Cl)cc3)=NO2)CC1 (configuration not stated)
→ 1.42	1.03

# Five compounds from above, sorted by length of the SMILES, highest first.
# Order of values – CDC25B-CDK2 inh	TAR Tat displ
- CCOc1ccc(-c2noc(-c3nnn(-c4ccc(OC)c(Cl)c4)c3N)n2)cc1
→ x	0.58
- Cc1cc(=O)c2c(=O)n(-c3nc4ccccc4s3)[nH]c2[nH]1
→ 4.43	2.84
- CCOC(=O)C1=NOC2C(=O)N(c3ccc(C)cc3)C(=O)C12 (configuration not stated)
→ -0.48	2.6
- CCCCNc1cc(C)nc2c(-c3ccc(F)cc3)cnn12
→ 0.88	0.26
- C/C=C(\C)C(=O)Nc1nncs1
→ -0.66	x

# Next part.
# Order of values – CDC25B-CDK2 inh	TAR Tat displ
- N#C/C(=N\Nc1ccc(F)cc1)C(=O)NCC1CCCO1 (configuration not stated)
→ -3.31	x
- COc1cc(Cl)c(NS(=O)(=O)c2ccc(-c3n[nH]c(C)c3C)s2)c(OC)c1
→ x	0.01
- Cc1[nH]c(C)c2c(=O)n(Cc3ccccc3Cl)ncc12
→ -0.22	x
- CC1CCCCC1NC(=O)C1(C)Cn2c(cc3occc32)C(=O)N1CCN(C)C (configuration not stated)
→ x	2.35
- COc1ccc(-c2nc(-c3ccc4c(c3)ncn4C3CCCC3)no2)cc1OC
→ x	0.87
- Cc1nn(-c2nc3ccccc3s2)c2c1C(c1c(F)cccc1Cl)CC(=O)N2 (configuration not stated)
→ -2.44	-1.01
- Cc1ccc(-c2ccc(=O)n(Cc3ccc(Cl)cc3)n2)cc1S(=O)(=O)N1CCCC1
→ -0.5	0.76
- COc1ccc(S(=O)(=O)Nc2ccccn2)cc1C
→ -1.7	x
- CCN(CC)C(=O)C1CCN(S(=O)(=O)c2c(C)noc2C)CC1
→ x	2.72
- O=C(CSc1ccc2nnc(-c3ccc(F)cc3)n2n1)N1CCc2ccccc21
→ -0.68	x
- CC(C)NC(=O)CSc1cn(CC(=O)N2CCCC2)c2ccccc12
→ x	0.54
- CCOC(=O)C1CCCN(S(=O)(=O)c2c(C)nc3sc(C)cn3c2=O)C1 (configuration not stated)
→ x	0.82
- CC1CCN(CCCNC(=O)c2ccc3c(c2)NC(=O)C(N2CCOCC2)S3)CC1 (configuration not stated)
→ 0.43	x
- Cc1ccc2cccc(NC(=O)C3COc4ccccc4O3)c2n1 (configuration not stated)
→ 0.25	1.15
- CCOC(=O)Cc1csc(NC(=O)c2cccs2)n1
→ -1.42	0.8
- CCc1ccc(C(c2ccc(CC)o2)c2cc3c(cc2[N+](=O)[O-])OCCO3)o1
→ 4.4*	x
- COCOc1ccc(C(=O)CC(=O)c2ccccc2O)cc1
→ -3.3	x
- CCOC(=O)C1CCN(c2cnc3ccccc3n2)CC1
→ x	0.29
- Cn1c(=O)c(N2CCCC(C(=O)O)C2)nc2cccnc21 (configuration not stated)
→ 0.69	0.84
- CCCCN1CCc2nc(N3CCN(C)CC3)ncc2C1
→ x	1.54
- Cc1nc(-c2csc(S(=O)(=O)N3CCCc4ccccc43)c2)no1
→ x	-0.46
- CCOC(=O)N1CCN(c2nc3c([nH]2)c(=O)n(C)c(=O)n3C)CC1
→ -2.19	0.65
- CCCOC(=O)CSc1[nH]c(=O)cc(C)c1C#N
→ -0.41	-0.89
- CCOC(=O)N1CCN(c2c(N3CCCC3)c(=O)c2=O)CC1
→ -0.59	1.47
- O=C(c1csc(S(=O)(=O)N2CCc3ccccc3C2)c1)N1CCCCC1
→ x	0.04
- CCN(Cc1nc(-c2ccc(OC)cc2)no1)S(=O)(=O)c1ccc(Br)cc1
→ -0.43	1.75
- Cc1nc(Oc2ccccc2)c2c3c(sc2n1)CCCC3
→ -1.13	x
- COc1cc2ncc(S(=O)(=O)c3ccccc3)c(Nc3ccccc3)c2cc1OC
→ -0.68	5.24
- COCCNC(=O)N1c2ccccc2Sc2ccccc21
→ 2.55	0.74
- CC(C)CCC1(C)NC(=S)N(c2ccccc2)N1 (configuration not stated)
→ 4.25	x
- O=S(=O)(Nc1ccc2c(c1)N(S(=O)(=O)c1ccccc1)CCC2)c1ccc(F)cc1
→ x	0.21
- O=[N+]([O-])c1cccc(-c2noc(C(F)(F)F)n2)c1
→ -0.63	x
- COC(=O)C1=C(C)NC(=S)NC1c1ccccc1Cl (configuration not stated)
→ -0.93	x
- CCOC(=O)C(C)NC(=O)Cc1noc2ccccc12 (configuration not stated)
→ -0.91	1.46
- CC1CN(C(=O)Nc2ccc(Br)cc2F)c2ccccc2S1 (configuration not stated)
→ x	0.84
- Cc1cc(NC(=O)C2CC(c3ccc(Cl)cc3)=NO2)no1 (configuration not stated)
→ -0.24	-1.68
- O=C1CCCN1CCCNc1ncnc2onc(-c3cc(F)cc(F)c3)c12
→ x	0.72
- COC(=O)c1sc2ccc(N)cc2c1OC
→ 5.4*	-2.79
- O=C1NN=C(CN2CCN(c3ccccc3F)CC2)Oc2ccccc21
→ -0.56	-0.69
- CCCCN(Cc1cc2ccccc2[nH]c1=O)S(=O)(=O)c1ccc(C)cc1
→ -1.18	-0.05
- O=C(NCc1ccc2c(c1)OCO2)c1noc2c1CCc1sccc1-2
→ x	-0.16
- O=C(COC(=O)c1cccc2ccccc12)c1ccc(-c2ccccc2)cc1
→ -4.08	x
- O=C(O)c1cccc(O)c1O
→ x	9.56*
- CCn1c(COc2ccc(OC)cc2)nnc1SCc1cc(=O)c2c(C)cc(C)cc2[nH]1
→ x	0.21
- Cc1cc(C)c(-c2c(N3c4ccccc4CC3C)c(=O)c2=O)cc1C (configuration not stated)
→ x	0.2

# Next section:
smiles	CDC25B-CDK2 inh	TAR Tat displ
CC(C)NC(=O)CSc1nccn1C1CCCCC1	x	1.29
Cc1nnc2c3c4c(sc3nc(C)n12)CCCC4	-1.32	x
CCC(O)c1nc2ccccc2n1CCCOc1cc(C)cc(C)c1 (configuration not stated)	-1.34	1.73
CC(c1ccccc1)C1C(C#N)=C(N)OC2=C1C(=O)CC(C)(C)C2 (configuration not stated)	-0.24	x
CCOc1cc(C2Nc3cccc4cccc(c34)N2)ccc1O	-4.41	8*
COCCN1C(=O)c2[nH]nc(-c3cc(C)ccc3O)c2C1c1ccc(O)c(OC)c1 (configuration not stated)	-0.58	-1.95
Cc1cccc(CCNc2cc(C)nc3nc(C)nn23)c1	-0.3	0.46
OC(c1ccccc1)C1CCCCC1 (configuration not stated)	-1.63	x
O=C(CSc1ncnc2sc3c(c12)CCCC3)c1ccccc1	-15.1	x
CCOC(=O)c1ccc(Oc2c(C(F)(F)F)oc3cc(OC(=O)N(C)C)ccc3c2=O)cc1	-2.04	0.36
CCCCN(CC)C(=O)c1cc2c(s1)-c1ccc(Cl)cc1S(=O)(=O)C2	-1.21	3.15
Cc1cc(Br)ccc1NCc1ccc2c(c1)OCO2	-0.45	1.98
O=C1/C(=C\c2cccc([N+](=O)[O-])c2)SC(=S)N1c1ccc(F)c(F)c1	-0.86	x
Cc1nc2nc(N)[nH]n2c(=O)c1Cl	0.26	x
Cn1c(=O)c(=O)n(C)c2cc(S(=O)(=O)C3CCCCC3)c(N)cc21	x	0.44
COc1cccc(C2CN=NC23Cc2ccccc2C3=O)c1 (configuration not stated)	-2.15	x
Cc1ccc(C(=O)CC2(O)C(=O)N(CCc3ccccc3)c3ccc(Cl)cc32)o1 (configuration not stated)	-1.77	1
CCCn1c2ccccc2c2cnn(CC(=O)NCCC(C)C)c(=O)c21	x	2.36
CSc1cccc(-n2nnc(-c3nsc(NC(=O)c4ccco4)n3)c2C)c1	-2.03	3.11
CSc1nnc(Cn2c(=O)sc3ccccc32)n1C	-0.17	x
O=c1cc(C(F)(F)F)[nH]c2n[nH]c(-c3cccs3)c12	0.05	x
O=C(NCCn1c(C(F)(F)F)nc2ccccc21)c1cnccn1	x	-0.76
CCCCN(c1ccccc1)S(=O)(=O)c1ccc2c(c1)NC(=O)C(C)S2 (configuration not stated)	x	2.12
CC(C)Cn1nnc2c(=O)oc3ccccc3c21	0.48	x
S=c1[nH]nc(NC2CCCCC2)s1	-1.93	x
CCOc1ccc(C(C)(O)C(CN2CCCC2)c2ccccc2)cc1 (configuration not stated)	-1.71	-0.95
O=C(Cc1cccs1)Nc1cc(C(F)(F)F)ccc1OCC(F)(F)F	-0.35	x
Cn1cccc1CNCc1cccnc1	-1.84	-1.65
CC(C)Cn1cc(NC(=O)Nc2ccc(N3CCC(C)CC3)cc2)c2ccccc2c1=O	1.51	0.35
O=C(O)CCC(=O)N1c2ccccc2NC2=C(C(=O)CCC2)C1c1cccs1 (configuration not stated)	x	1.76
C=CCNc1nc(C)nc2c1sc1nc3c(cc12)COC(C)(C)C3	-1.34	-2.75
CCOC(=O)C1CCN(C(=O)C2CCN(c3ncnc4c3nc3n4CCCCC3)CC2)CC1	x	1.79

# Compound profiles, as listed above:
# `CC(C)Cn1cc(NC(=O)Nc2ccc(N3CCC(C)CC3)cc2)c2ccccc2c1=O` across the screens: CDC25B-CDK2 inh: 1.51; TAR Tat displ: 0.35
# `CC1CN(C(=O)Nc2ccc(Br)cc2F)c2ccccc2S1` (configuration not stated) across the screens: CDC25B-CDK2 inh: x; TAR Tat displ: 0.84

# Next records:
smiles	CDC25B-CDK2 inh	TAR Tat displ
Cc1nn(C)c(C)c1NS(=O)(=O)c1cc(Cl)sc1Cl	1.27	x
Cc1cc(=O)n(CC(=O)c2c(C)n(C)c3ccccc23)c2c1c(C)nn2-c1ccccc1	x	0.44
O=c1[nH]c(Cc2ccccc2)nc2c1C1(CCCCC1)Cc1ccccc1-2	-1.32	x
COc1ccc(N2C(=O)c3cccnc3C2=O)cc1	-0.03	0.86
CCOC(=O)c1cn[nH]c1S(=O)(=O)N1CCc2ccccc21	x	1.6
COc1ccc(C2CC(=O)N3CN(Cc4ccco4)CSC3=C2C#N)cc1OC (configuration not stated)	5.5*	1.08
O=C(NC1CCCC1)c1ccc(N2CCCc3ccccc32)s1	x	-0.57
CN(CC(=O)NC1CCCCC1)c1nnc(N2CCCC2=O)s1	-1.51	2.29
CC(C)N(C(=O)CSc1nc2ccccc2[nH]1)c1ccccc1	-1.74	0.46
COc1ccc(C2CC(=O)C3=C(C2)Nc2ccccc2NC3c2cccnc2)cc1 (configuration not stated)	-0.76	x
C=CCNc1nc(Nc2ccc(OC)cc2)c2cnn(C)c2n1	x	0.08
CC(C)CCNc1cc(-c2ccccc2)nc2nncn12	1.3	0.51
Clc1ccc(N2CCN(Cc3cc4ccccn4n3)CC2)cc1	-1.26	x
Cc1ccc(Cl)cc1N1CCN(S(=O)(=O)c2cc3c(cc2C)N(C)CCO3)CC1	x	1.67

# Retrieved by compound from the list above:
smiles	CDC25B-CDK2 inh	TAR Tat displ
CC(C)CCNc1cc(-c2ccccc2)nc2nncn12	1.3	0.51
CC(C)N(C(=O)CSc1nc2ccccc2[nH]1)c1ccccc1	-1.74	0.46
COc1ccc(C2CC(=O)C3=C(C2)Nc2ccccc2NC3c2cccnc2)cc1 (configuration not stated)	-0.76	x
